Screening data as filed in PubChem BioAssay.
CDC25B CDK2 inh: human CDC25B-CDK2/CyclinA binding inhibition; P30305+P24941; HTRF CDC25B-CDK2/CyclinA binding, anti-His/anti-Flag; hits give high values; z-score (concentration not given with the values); 94,000 compounds, 0.72% hits; AID 1259370;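 also: score is relative to mean and SD of negative controls; strong numbers were not always called active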
HIV TAR-Tat: HIV-1 TAR-Tat binding disruption; z-score (no concentration beside the values); HIV-1 TAR RNA, Tat peptide displacement FRET; hits give high values; 100,000 compounds, 0.6% hits;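 also: score is relative to mean and SD of negative controls; some compounds called inactive have numbers as strong as hits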
* marks the source's active call; other numbers are inactive results; · = not tested or not shown.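 The calls were made as follows: active = z-score from 3 up in half or more of its runs; inactive = the rest.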 Compounds were not picked by outcome. Share with any hit: about 0.94%.

SMILES	CDC25B CDK2 inh	HIV TAR-Tat
COc1ccc(-c2noc(CSc3nnc(-c4ccc5c(c4)OCCCO5)n3C)n2)cc1OC	·	1.17
COc1ccc(Cc2nnc3sc(/C=C/c4ccccc4)nn23)cc1	-0.39	-0.55
O=C(Cc1ccccc1)Nc1cccc(C(=O)O)c1	-1.67	·
O=C1C2C3c4ccccc4C(CO)(c4ccccc43)C2C(=O)N1c1ccc(F)cc1 (configuration not stated)	-0.26	2.35
CCC12CN3CC(C)(CN(C1)C3c1ccc3c(c1)OCO3)C2=O (configuration not stated)	-0.8	0.64
COc1nc(-c2ccccc2)ccc1-c1noc(-c2ccc(C)cc2)n1	-0.27	-1.28
CC1(C)CC(=O)c2cc(C#N)c(=S)[nH]c2C1	-2.54	-1.65
Cc1nn(S(=O)(=O)c2cccs2)c(C)c1S(=O)(=O)N(C)c1ccccc1	·	0.84
CC(C)C1c2cccn2CCN1C(=O)NC1CCCC1 (configuration not stated)	·	-0.55
Cn1c(=O)c2[nH]c(NCc3ccccc3)nc2n(C)c1=O	-0.91	0.65
O=[N+]([O-])c1cc(C(F)(F)F)ccc1Oc1ccc2nonc2c1	-1.74	·
CC(=O)NC(=O)c1ocnc1C	0.27	·
CC(NC(=O)c1c(O)c2cccc3c2n(c1=O)CC3)c1ccccc1 (configuration not stated)	·	1.56
O=C(NNC(=O)c1sccc1OCc1ncc(C(F)(F)F)cc1Cl)c1ccccc1	-1.07	·
C=CCn1c(SCC(=O)NCc2ccco2)nc2c([nH]c3ccccc32)c1=O	·	2.18
O=c1c2cc(Br)ccc2[nH]c(=S)n1CC1CCCO1 (configuration not stated)	-2.19	·
OCCN1CCN(C2CCN(C3CCCCCC3)CC2)CC1	-2.47	·
Cc1cc2c(cc1S(=O)(=O)NCc1cccs1)OCCN2C	·	0.7
COC(=O)c1cc(-c2ccc3ccccc3c2)n[nH]1	-1.04	1.1
CN(C)CCN(Cc1ccccc1)C(=O)Cn1c(=O)oc2ccccc21	·	0.58
COc1c(Br)cc(Br)c2c1OCCO2	-0.75	·
CC(C)COc1ccc2c(c1)c1c(n2C)C(=O)CCC1	-1.35	·
COc1ccc(C(=O)CSc2ncn[nH]2)cc1Br	-1.21	0.4
COc1ccc(-c2nc(SC3CCCC3)c3c(=O)n(C)c(=O)n(C)c3n2)cc1	-1.19	·
Cc1ccc(NC(=O)c2ccccc2)c(OC(=O)c2ccccc2)c1	-0.76	·
SMILES	CDC25B CDK2 inh	HIV TAR-Tat
Cc1ncc(-c2ccc(S(=O)(=O)Nc3cc(F)ccc3F)cc2)o1	·	1.65
CCCc1cc(=O)n2nc(N(C)CC(=O)NCCCN3CCOCC3)sc2n1	-0.16	1.56
CC(C(=O)NCc1ccc2c(c1)OCO2)n1sc2ccccc2c1=O (configuration not stated)	-2.85	2.06
CC1Cc2cc(-c3cc(C(=O)Nc4sc5c(c4C(N)=O)CCCC5)no3)ccc2O1 (configuration not stated)	-2.01	2.17
CCOc1ccccc1Oc1coc2cc(OCC(=O)OC(C)(C)C)ccc2c1=O	-1.74	0.5
CC(=O)Oc1ccc2c(=O)c(Oc3ccccc3)c(C(F)(F)F)oc2c1C	-6.01	-0.52
CC(C)CNCC1COC2(CCCCC2)O1 (configuration not stated)	-1.46	·
CC(=O)Oc1cc2sc(=O)oc2c2ccccc12	8.08	·
O=[N+]([O-])c1ccc(N2CCN(c3ccccc3)CC2)s1	·	3.48
CCC12CN3CC(CC)(CN(C1)C3c1ccc(C(C)C)cc1)C2=O (configuration not stated)	-1.02	·
CCc1nonc1NC(=O)C1COc2ccccc2O1 (configuration not stated)	-1.54	0.05
CCOC(=O)Cn1c2c(sc1=O)C(c1ccc(Cl)cc1)C1C3CCC(C3)C1S2 (configuration not stated)	0.25	0.97
O=C(Cn1c(=O)n(-c2ccccc2)c(=O)c2c3c(sc21)CCC3)NCC1CCCO1 (configuration not stated)	-0.79	0.74
CC1=C(c2ccc(Cl)cc2)S(=O)(=O)N=C1N1CCN(Cc2ccccc2)CC1	-4.98	0.56
N/C(Cc1ccc(F)cc1Cl)=N\O	-1.32	·
c1nc(Nc2ccc3c(c2)OCO3)c2nc3n(c2n1)CCCCC3	·	-0.3
Cc1cccc(-c2nnn(-c3cccc(Cl)c3C)n2)c1	-0.37	2.1
Cc1ccc(S(=O)(=O)Nc2cccc(-c3ccc(N4CCCC4)nn3)c2)c(C)c1	·	1.06
O=C(NCCCN1CCCCC1)C1CCCN(c2ncnc3c2nc2n3CCCCC2)C1 (configuration not stated)	·	-0.57
CCOC(=O)C1=C(C)NC2=C(C(=O)CCC2)C1c1cccnc1 (configuration not stated)	0.14	0.24
CCOC(=O)c1sc2ncnc(Oc3ccc(F)cc3)c2c1C	·	-0.77
Cc1nn(CC(=O)N/N=C/c2c(F)cccc2Cl)c(C)c1Br	-0.83	·
CCC(=O)Nc1cc(C(F)(F)F)cc(C(F)(F)F)c1	-0.81	·
CCCNC(=O)Nc1nc(CC(=O)OCC)cs1	-1.89	0.58
Cc1ccsc1CNC(=O)c1c(F)cccc1Cl	-1.7	·
SMILES	CDC25B CDK2 inh	HIV TAR-Tat
Cc1ccc2c(c1)N(C(=O)CCC1CCCCC1)C(C)(C)c1ssc(=S)c1-2	-1.39	·
CCc1cc(N2CCN(c3ccccc3)CC2)n2ncnc2n1	-0.36	0.6
Cc1nc2ccc(S(=O)(=O)NC(C(=O)N3CCn4c3nc3ccccc34)C(C)C)cc2s1 (configuration not stated)	-0.9	1.27
O=C(CSC1=NS(=O)(=O)c2cc(F)ccc2N1)c1ccccc1	·	-0.56
COc1ccc(CN=C2NS(=O)(=O)C(c3ccc(C)c(C)c3)=C2C)cc1	-0.73	-0.42
CCc1ccc(S(=O)(=O)c2cnc3ccccc3c2N2CCCC2)cc1	-1.42	0
CN1CCN(C(=O)CCCc2nnc3n(C)c(=O)c4sccc4n23)CC1	4.1	0.61
Cc1ccccc1-c1nc2cc(Cl)ccc2o1	0.16	·
Nc1ncc(Br)cc1S(=O)(=O)N1CCN(c2ccccc2)CC1	-1.53	1.77
CCC1CN(C(=O)Nc2ccc3c(c2)OCCO3)c2cc(C)ccc2O1 (configuration not stated)	·	1.95
Cc1cc(C)c2[nH]c(C)c(CN(C)C3CCCCC3)c(=O)c2c1	-1.09	-0.16
Clc1ccccc1CNc1nc2ccccc2c2nc(-c3ccncc3)nn12	-1.46	0.31
CCCSCCCNC(=O)c1csc2c1CCCC2	-1.88	-0.45
O=S(=O)(NCCc1csc2nc(-c3ccc(Cl)cc3)nn12)c1ccc(-c2ccccc2)cc1	·	1.4
COc1cc(Br)c(C2C(C(=O)OC(C)C)=C(C)NC3=C2C(=O)CCC3)cc1OC (configuration not stated)	-0.09	1.52
N#Cc1c[nH]n2c(NC3CCCC3)c(-c3cccc(Br)c3)nc12	-1.22	0.3
Cc1ccccc1-c1noc2ncnc(NCCCO)c12	·	0.09
O=C(NCc1ccncc1)c1cc(-c2ccc3c(c2)OCO3)nc2ccccc12	-0.43	0.75
Cc1sc2nc(SCc3ccc(C(=O)NCCO)cc3)[nH]c(=O)c2c1C	-0.47	·
CCN(CC)C(=O)c1oc2ccccc2c1NC(=O)C(C)(C)C	·	0.42
Clc1ccccc1Sc1nc2ccccc2n2cnnc12	-3.9	·
CCOc1ccc(-c2noc(-c3nnn(-c4ccc(OC)cc4)c3N)n2)cc1	·	0.84
Cc1cc(OCC(=O)Nc2ncn[nH]2)c(C)cc1Br	·	1.82
O=C(NC1CCCC1)N1CCCC1c1ccco1 (configuration not stated)	-2.67	0.77
CCn1c(=O)sc2cc(NC(=O)C(C)C)ccc21	·	-0.22
SMILES	CDC25B CDK2 inh	HIV TAR-Tat
O=C(O)c1ccc(N2CCCC2=O)cc1	·	2.01
CCCC1=C(C(=O)OCC)C(c2cc(Br)c(O)c(OC)c2)NC(=O)N1 (configuration not stated)	0.25	·
CCN(CC)CC(=O)N1c2ccccc2NC(=O)CC1C (configuration not stated)	-1.26	-0.16
CS(=O)(=O)Nc1cccc(C2=NN(C(=O)CCC(=O)O)C(c3ccccc3F)C2)c1 (configuration not stated)	-1.12	·
CN1C2=C(C(=O)CC(C)(C)C2)C(c2ccc(O)cc2)C2=C1CC(C)(C)CC2=O	-0.38	-0.23
Cc1ccc(-c2n[nH]c(=O)c3c2CCCC3)cc1S(=O)(=O)N(C)c1ccc(Br)cc1	0.37	-0.49
COc1ccc(OC)c(C(=O)CSc2nccn(-c3ccc(F)cc3)c2=O)c1	·	0.01
CCc1nn(C(C)C(=O)N(C)Cc2ccccc2)c(=O)c2cc3occc3n12 (configuration not stated)	-1.14	-0.65
CC1=[N+](C)c2cc(C(F)(F)F)ccc2C1(C)C	-0.25	·
CCC(CC)C(=O)Nc1ccc(OCc2cc(=O)n3cccc(C)c3n2)cc1	·	2.07
CC(=O)Nc1cc2nc(N)sc2cc1C	0.49	0.45
CCCCC(CC)CNS(=O)(=O)c1ccc2c(c1)CC(C)N2C(=O)CC (configuration not stated)	·	0.89
CC(C)CCN1C(=O)c2ccc(-c3ccco3)n2CC1(C)C(=O)NC1CCCCC1 (configuration not stated)	·	-0.99
CC1CCc2nn(CC(=O)N3CCN(C(=O)c4ccco4)CC3)cc2C1 (configuration not stated)	-2.19	1.06
Cc1cnc(NS(=O)(=O)c2ccccc2)c(C)n1	-2.84	·
O=C(N/N=C/c1cc([N+](=O)[O-])ccc1N1CCCCC1)c1ccccc1	-0.36	·
CC1CC(=O)Nc2cc(S(=O)(=O)N3CCN(C)CC3)ccc2S1 (configuration not stated)	·	0.77
Cc1noc(/C=C/c2ccco2)c1S(=O)(=O)N1CCCC(C(=O)NC2CCCC2)C1 (configuration not stated)	·	1.43
FC(F)(F)c1cc(-c2cccs2)n[nH]1	1	1.13
O=C(CCCn1c(=O)c2cccn2c2cccnc21)NCCCN1CCCCC1	·	-2.28
CCn1nc(C)c(CCNS(=O)(=O)c2cc(OC)ccc2OC)c1C	·	0.75
CCCCNC(=O)Cn1c(=O)cc(C(F)(F)F)c2c(C)nn(C)c21	·	0.5
COc1ccc(S(=O)(=O)N2CCN(c3cc(N4CCOCC4)nc(C)n3)CC2)cc1	-1.91	0.62
Cc1ccc(CN2C(=O)c3ccncc3C2=O)cc1	·	1.68
COc1ccccc1C1N=C(c2ccc3c(c2)OCO3)CC(c2ccccc2O)N1 (configuration not stated)	-1.17	·

Among those listed so far, 14 contain an aryl methoxy group.
SMILES	CDC25B CDK2 inh	HIV TAR-Tat
COc1ccc(-c2noc(CSc3nnc(-c4ccc5c(c4)OCCCO5)n3C)n2)cc1OC	·	1.17
COc1ccc(Cc2nnc3sc(/C=C/c4ccccc4)nn23)cc1	-0.39	-0.55
COc1nc(-c2ccccc2)ccc1-c1noc(-c2ccc(C)cc2)n1	-0.27	-1.28
COc1c(Br)cc(Br)c2c1OCCO2	-0.75	·
COc1ccc(C(=O)CSc2ncn[nH]2)cc1Br	-1.21	0.4
COc1ccc(-c2nc(SC3CCCC3)c3c(=O)n(C)c(=O)n(C)c3n2)cc1	-1.19	·
COc1ccc(CN=C2NS(=O)(=O)C(c3ccc(C)c(C)c3)=C2C)cc1	-0.73	-0.42
COc1cc(Br)c(C2C(C(=O)OC(C)C)=C(C)NC3=C2C(=O)CCC3)cc1OC (configuration not stated)	-0.09	1.52
CCOc1ccc(-c2noc(-c3nnn(-c4ccc(OC)cc4)c3N)n2)cc1	·	0.84
CCCC1=C(C(=O)OCC)C(c2cc(Br)c(O)c(OC)c2)NC(=O)N1 (configuration not stated)	0.25	·
COc1ccc(OC)c(C(=O)CSc2nccn(-c3ccc(F)cc3)c2=O)c1	·	0.01
CCn1nc(C)c(CCNS(=O)(=O)c2cc(OC)ccc2OC)c1C	·	0.75
COc1ccc(S(=O)(=O)N2CCN(c3cc(N4CCOCC4)nc(C)n3)CC2)cc1	-1.91	0.62
COc1ccccc1C1N=C(c2ccc3c(c2)OCO3)CC(c2ccccc2O)N1 (configuration not stated)	-1.17	·

Complete entries, looked up by structure. Order of screens: CDC25B CDK2 inh | HIV TAR-Tat
`CC1=[N+](C)c2cc(C(F)(F)F)ccc2C1(C)C` is entered as -0.25 | ·
`COc1ccc(S(=O)(=O)N2CCN(c3cc(N4CCOCC4)nc(C)n3)CC2)cc1` is entered as -1.91 | 0.62
`CC(C)CCN1C(=O)c2ccc(-c3ccco3)n2CC1(C)C(=O)NC1CCCCC1` (configuration not stated) is entered as · | -0.99

(next part)
SMILES	CDC25B CDK2 inh	HIV TAR-Tat
O=C(CSc1ccc2nnc(-c3ccccc3)n2n1)Nc1nc2ccccc2s1	-0.19	·
CCOC(=O)CSc1nc2c(c(=O)n1C1CCOC(C)(C)C1)C1(CCCC1)Cc1ccccc1-2 (configuration not stated)	-0.91	·
Cc1cccc2sc(NC(=O)CCNS(=O)(=O)c3cccs3)nc12	0.52	·
CCc1cccc(NS(=O)(=O)c2cc(-c3csc(C)n3)ccc2C)c1	·	1.45
O=C(O)CNc1ncnc2sc3c(c12)CCCC3	-1.49	·
COc1ccc(OC)c(CNc2c(-c3cc(C)c(C)cc3C)c(=O)c2=O)c1	·	0.18
COc1ccc(C)cc1Nc1nc2ccccc2c2nncn12	-1.16	0.54
COc1cc(C)ccc1OCCSc1nnc(COc2ccc(Cl)cc2)o1	-0.74	-0.11
c1ccc(-c2cn3nc(SCc4ccccn4)ccc3n2)cc1	·	0.25
O=C(CSc1nccn1C1CCCCC1)NC1CCCCC1	·	1.55
CC1=C(C(=O)OCCc2ccccc2)C(c2ccc(C)o2)C2=C(CC(c3cccs3)CC2=O)N1 (configuration not stated)	-0.84	0.7
O=C(Nc1ccc(SCc2cc(=O)n3ccccc3n2)cc1)c1ccco1	3.41	0.44
COc1ccc(-c2noc(C3CCCN(S(=O)(=O)c4ccc5c(c4)CCCC5)C3)n2)cc1OC (configuration not stated)	·	1.94
CCN(CC)c1ccc(C2Nc3ccccc3-c3cc(C)nn32)c(O)c1 (configuration not stated)	-2.1	1.29
O=C(CC(C(=O)O)c1c[nH]c2ccccc12)c1ccccc1 (configuration not stated)	-0.48	1.89
c1ccc(CSc2ccc3nnc(-c4ccccc4)n3n2)cc1	-2.01	·
CC1CCN(C(=O)Cn2c(=O)n(CCCC(=O)NCc3ccco3)c(=O)c3sccc32)CC1	0.08	·
